High-throughput results deposited in PubChem by Fisher Drug Discovery Resource Center.
NPYLR7 ag – agonists of mosquito NPYLR7 receptor, primary screen, cell-based, Aedes aegypti, calcium fluorescence, mosquito biting behavior | HEK293T NPYLR7/Galpha15, GCaMP6s calcium fluorescence | actives 0.15% (n = 270,000) | activation, % at 10 µM | Aedes aegypti neuropeptide Y-like receptor 7 (NPYLR7); in the data active = activation above about 40%;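 also: 0% = vehicle and 100% = reference agonist at the receptor; some compounds past the cut are filed as inactive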
NPYLR7 ag max-min – also measured in NPYLR7 ag; calls as there; activation, %; measured here: Max-Min RFU normalised activation; some inactives read as strong as hits;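 span of the calcium signal over five minutes; 0% = vehicle and 100% = native peptide agonist; compound fluorescence can raise it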
An asterisk follows results filed as active; i = inactive; & = joins results of further samples. A portion of the library (hit frequency here may not be typical).

SMILES	NPYLR7 ag	NPYLR7 ag max-min
O=C(CN1C(=O)c2ccccc2C1=O)NCC(=O)OCC(=O)c1ccc(Br)cc1	1.4	6.4
O=C(Nc1nnc(SCc2ccccc2F)s1)C1CCCCC1	-2.9	0.5
C=CCn1c(SCC(=O)Nc2ccc(C(C)=O)cc2)nc2ccsc2c1=O	1.0	-1.2
C=CCn1c(SCC(=O)Nc2ccc(O)cc2)nc2sc(C)c(C)c2c1=O	7.0	6.2
CC1CCc2ccc(F)cc2N1S(=O)(=O)c1ccc(Cl)s1 (stereo not given)	-3.7	-3.0
CCCCOC(=O)n1c(SCC(N)=O)nc2ccccc21	-9.3	-15.0
O=C(c1cc(-c2ccccc2)n[nH]1)N1Cc2cccc3cccc(c23)C1	-2.1	-2.3
CC(=O)c1ccccc1OC(=O)c1cccn1C	8.1	7.1
COc1ccc(Oc2cc(N3CCN(c4ccccc4)CC3)ncn2)cc1	-8.2	-3.1
CC(=NNC(N)=S)c1ccc(C)cc1	-0.5	-1.0
Cc1ccc(C)c2c3c([nH]c12)-c1nonc1CC3	0.1	-4.7
O=[N+]([O-])c1ccc2[nH]c(O)c(N=Nc3ncc(Cl)cc3Cl)c2c1	4.4	5.8
CCN(CCOc1cccc(Cl)c1)C(=O)c1ccc(=O)n(C)c1	-11.0	-14.0
CCN1CCC(NC(=O)N(Cc2ccc(-c3ccccc3C)s2)C(C)C)CC1	0.6	7.3
CCC(O)CN(Cc1nc2sc(C)c(C)c2c(=O)[nH]1)CC(C)C (stereo not given)	24.0	23.6
N#Cc1ccc(S(=O)(=O)N(CCC(N)=O)c2ccc(F)cc2)cc1	8.2	7.8
CCc1nnc2n1NC(C)=C(C(=O)Nc1ccccc1)S2	-20.1	-26.2
COCCn1cnc2cnc(Nc3ccc(F)c(Cl)c3)cc21	16.1	11.5
CNC(=O)c1ccc(C)c(NCc2ccccc2C#N)c1	-0.4	-1.4
CCC(NC(=O)OC1CCCC1)(C(F)(F)F)C(F)(F)F	-1.1	0.9

Exported as labelled records: entries from further up
CCCCOC(=O)n1c(SCC(N)=O)nc2ccccc21
  NPYLR7 ag = -9.3
  NPYLR7 ag max-min = -15.0

O=C(c1cc(-c2ccccc2)n[nH]1)N1Cc2cccc3cccc(c23)C1
  NPYLR7 ag = -2.1
  NPYLR7 ag max-min = -2.3

CC(=O)c1ccccc1OC(=O)c1cccn1C
  NPYLR7 ag = 8.1
  NPYLR7 ag max-min = 7.1

Gathered by group: the compounds so far containing an NH in an aromatic ring (4)
SMILES	NPYLR7 ag	NPYLR7 ag max-min
O=C(c1cc(-c2ccccc2)n[nH]1)N1Cc2cccc3cccc(c23)C1	-2.1	-2.3
Cc1ccc(C)c2c3c([nH]c12)-c1nonc1CC3	0.1	-4.7
O=[N+]([O-])c1ccc2[nH]c(O)c(N=Nc3ncc(Cl)cc3Cl)c2c1	4.4	5.8
CCC(O)CN(Cc1nc2sc(C)c(C)c2c(=O)[nH]1)CC(C)C (stereo not given)	24.0	23.6

Carrying on.
SMILES	NPYLR7 ag	NPYLR7 ag max-min
COCC(=O)N(Cc1cc(Cl)ccc1OS(C)(=O)=O)C(C)C	8.8	19.0
Cc1cc(C)c2c(c1)C(=NNC(=S)NC(C)C)CCC2	3.9	-1.2
CC1CCN(Cc2nc(NCCN3CCOCC3)c3c4c(sc3n2)CCC4)CC1	7.6&3.7	4.5&2.7
COCCN1CCCC(O)(CN2CCC(Cc3ccc(F)cc3)CC2)C1=O (stereo not given)	15.2	12.7
CC1CN(c2ccccc2)c2nc3c(c(=O)[nH]c(=O)n3C)n2C1 (stereo not given)	21.6	11.9
CCn1nnc2c(=O)n(CC(=O)N3CCCC3)cnc21	-1.2	34.4
CCOC(=O)C1=C(C)N(CC)C(=O)NC1c1cccc(Cl)c1Cl (stereo not given)	5.6	-1.9
CC(C)CCOC(C)C(=O)N(C)CC(=O)N(C)C (stereo not given)	4.0	1.5
NC1CCCC(c2nc(C3CCCCCC3)no2)C1 (stereo not given)	-1.0	i
CC(Nc1ccc(N)cc1Cl)c1ccccc1 (stereo not given)	-3.8	-8.6
CCOC(=O)N(C)c1c(CC)nc2c(OCc3ccc(F)c(F)c3)cccn12	3.2	-8.1
CCc1nc2c(OCc3ccc(C(F)(F)F)cc3)cccn2c1N(C)C(=O)CC(C)C	3.0	5.6
Cc1cc(C)n2nc(SCC(=O)NC(C)C34CC5CC(CC(C5)C3)C4)nc2n1 (stereo not given)	4.8	0.3
CCOC(=O)C1(C/C=C/c2ccccc2)CCCN(C(=O)CSC)C1 (stereo not given)	1.7	-2.9
Cc1nc(CC(=O)N2CCCC(Nc3ccc(C)c(C)c3)C2)cs1 (stereo not given)	16.1	-1.2
CN(Cc1cccc(F)c1)C(=O)C1CCN(S(=O)(=O)c2ccc3c(c2)OCCCO3)CC1	8.7	3.5
CCOC(=O)c1nn(-c2ccccc2)c(=O)cc1OCC(=O)Nc1cc(OC)ccc1OC	10.5	4.0
CCN(CC)S(=O)(=O)c1ccc(OC)c(NCc2cccc(C)c2)c1	-5.2	-6.9
COC(=O)c1c(C(=O)OC)c2n(c1C)CCC2	7.7	6.8
Cc1nnc(SCCC(=O)Nc2cnc3n2CCCC3)s1	-20.8	-16.7
O=C(c1ccco1)N(Cc1ccccc1)Cc1nc2cc(Cl)ccc2o1	5.6	5.7
COc1ccc(Cl)cc1NC(=O)CSc1nc(=O)n(N2CCN(C)CC2)c2c1CCC2	-4.2	-9.0
CC(c1cc(F)ccc1F)N(C)C(=O)c1cc(Br)c[nH]1 (stereo not given)	-12.3	-16.3
O=C(Cc1ccc2c(c1)OCO2)N1CCC(CO)(Cc2ccccc2)CC1	9.5	7.7
Oc1cccc2ccc(/C=N\N=C/c3ccc4cccc(O)c4n3)nc12	-4.9	-14.5
CCN1Cc2ccccc2CC1C(=O)N1C[C@H]2C[C@H](O)[C@@H](O)C[C@H]2C1 (stereo not given in full)	8.1	5.1
Fc1cccc(Cl)c1COc1ccccc1C1NCCc2[nH]cnc21 (stereo not given)	-5.5	-11.0
CC(C)COC(=O)Nc1ccc2nc(N3CCOCC3)sc2c1	6.9	5.8
O=S(=O)(c1ccc(Cl)cc1)N1CCOCC1	12.7	5.1
O=C1C(=Cc2c(NCCCn3ccnc3)nc3ccccn3c2=O)SC(=S)N1Cc1ccco1	6.8	2.3
NC1(CNC(=O)CCOc2ccc(F)cc2)CCCC1	8.1	-0.4
CCSc1nc2c(c(=O)n1-c1ccc(OC(F)(F)F)cc1)SCC2	-6.4	-10.8
CCN(CC)C(=O)COc1ccc(N(C)S(=O)(=O)c2ccc(F)cc2)cc1	20.0	11.7
CC(C)CN1C(=O)N(C)C(=O)C12CCN(Cc1nccs1)CC2	11.6	1.5
Cc1nc(-n2nc(-c3cccs3)cc2NC(=O)c2cc(=O)c3ccccc3o2)[nH]c(=O)c1C	4.9	2.1
O=C(N[C@H](CO)Cc1ccccc1)C1CC=CCC1C(=O)N1CCN(c2ccccn2)CC1 (stereo not given in full)	-3.7	-10.2
Cc1cc(N2CCCCC2)n2nc(C)c(-c3ccccc3Cl)c2n1	-1.2	-1.7
C=Cc1ccc(Cn2c(C)c(C(=O)NCc3cccs3)sc2=O)cc1	2.5	4.1
Cc1cccc(NS(=O)(=O)c2ccc(C(C)(C)C)cc2)n1	2.9	7.4
CC(C)CC(=O)N1CCc2nc(-c3ccccc3)nc(N3CCCCC3)c2C1	-6.0	-4.1
O=S(=O)(N1CCc2ccccc2C1)N1CCCC1c1ccccn1 (stereo not given)	7.6	5.2
COc1ccc(CN(CCc2c[nH]c3ccccc23)C(=O)CN(CC(C)C)C(=O)Nc2cccc(C#N)c2)cc1OC	11.0	22.7
Cc1cc(-n2cccn2)ccc1CN1CCn2nc(C(=O)N3CCCC3)cc2C1	0.3	0.7
CCSc1nc2c(c(=O)n1-c1ccc([N+](=O)[O-])cc1)SCC2	0.1	23.8
COCCNC(=O)c1ccccc1N1CCC(NC(=O)CCc2ccccc2)CC1	2.1	4.9
CC(C)(C)NC(=O)N(Cc1cccc(C(F)(F)F)c1)CC1CC(c2ccc(Cl)o2)=NO1 (stereo not given)	-31.4	-20.4
O=C(CCc1ccccc1Cl)NC1CC(=O)N(Cc2cccc(F)c2)C1 (stereo not given)	-0.4	-5.2
CCOC(=O)C1(Cc2cccc(OC)c2)CCCN(C(=O)Cn2ncc3ccccc32)C1 (stereo not given)	5.4&-7.9	2.3&-13.1
CCNC(=O)C1(C)CCN1Cc1ccc(-c2ccccc2)o1 (stereo not given)	-5.0	-3.0
CCN1c2ccc(S(=O)(=O)N3CCOCC3)cc2N(Cc2ccc(C)s2)C1C (stereo not given)	1.1	0.4
O=C1NCCC1(Sc1ccccc1)Sc1ccccc1	-4.2	-5.4
Cc1nc(N2CCN(S(=O)(=O)c3ccc(-c4csc(C)n4)s3)CC2)cc(-n2ccnc2)n1	-9.0	-14.2
CN(C)[C@@H]1C[C@@H](CO)N(C(=O)c2cccc3c(=O)c4ccccc4[nH]c23)C1	4.7	3.1
Cc1c(Cl)cccc1N1CCN(C(=O)CCc2ccccc2)C(C)C1=O (stereo not given)	-5.0	5.1
COC(=O)c1ccccc1NC(=O)Cn1nc([N+](=O)[O-])cc1C	-6.0	-20.9
COC(=O)c1ccc(-c2nc(CN3CCCCC3CCc3ccccn3)c(C)o2)cc1 (stereo not given)	18.9	11.2
CC(C)CN1CCC(CNC(=O)c2ccc(-c3cccc(CO)c3)nc2)C1 (stereo not given)	-3.3	-5.4
CC1CCN(c2nc(N)c([N+](=O)[O-])c(N3CCCC3)n2)CC1	-0.7	-1.9
CCC1CN(C(=O)C2(COC)CCC2)CCC(=O)N1Cc1ccccc1 (stereo not given)	-0.1	-4.5
OC(CN1CCOCC1)CN1CCC(c2nc3ccccc3o2)CC1 (stereo not given)	0.9	1.0

Next part
SMILES	NPYLR7 ag	NPYLR7 ag max-min
COc1ccc2ccccc2c1/C=C1/C(=O)NC(=S)N(c2ccc(Br)cc2)C1=O	0.2	-0.6
CCOC1CC(N(C)c2ncnc3c2cnn3CC(=O)OC)C1(C)C (stereo not given)	-5.4	-6.6
Cc1ccc(C2CC(C(F)(F)F)n3nc(C(=O)N4CCN(C)CC4)c(Cl)c3N2)cc1 (stereo not given)	20.1	12.2
NC(=O)C1CCCN(C(=O)C=C2CCCCC2)C1 (stereo not given)	-0.3	-7.5
NC(=O)C(NC(=O)c1cccc(Cl)c1)c1ccccc1 (stereo not given)	-0.3	-1.4
CCOC(C)C(=O)NS(=O)(=O)c1ccc(F)c(C(F)(F)F)c1 (stereo not given)	7.3	5.7
CS(=O)(=O)Nc1c(Cl)c(Cl)c(Cl)c(Cl)c1Cl	-6.2	-6.1
C=CCN(Cc1nccn1Cc1ccc(Cl)cc1Cl)S(=O)(=O)c1ccc(C)cc1	2.2	11.7
Cc1nnc(Nc2ccc3c(c2)nc2n3CCN(C3CCCCC3)C2)c2ccccc12	-20.0	-25.0
COC(=O)c1ccc(CN2CCN(Cc3cccc(OC)c3)C(=O)C2)cc1	24.7	19.5
CC(=O)NCCCC1=CCN(C2C=CCCC2)CC1 (stereo not given)	16.7	6.6
O=C(COc1ccc2c(c1)OCO2)N1CCN(c2ccc3nnc(C4CC4)n3n2)CC1	-1.1	3.5
CC(C)c1ccc(NS(=O)(=O)Cc2ccccc2Cl)cc1	-3.9	-5.5
CS(=O)(=O)C1CCCC(Sc2nccc(C(F)(F)F)n2)C1 (stereo not given)	-0.9	-1.3
CCOC(=O)C1CCN(CC(=O)N2N=C(c3cc(C)ccc3C)CC2c2cc(OC)ccc2OC)CC1 (stereo not given)	-1.5	0.0
CCOc1ccc(NC(=O)N2CCSC2c2ccccc2F)cc1 (stereo not given)	11.2	-0.9
CN1CCN(c2nc(Nc3ccc(F)cc3)c3cn[nH]c3n2)CC1	1.9	-1.6
CCCCCCCCn1c(O)cc(=O)[nH]c1=S	3.4	4.1
O=[N+]([O-])c1cnccc1Nc1cccc(C2=NCCN2)c1	-2.2	-6.2
O=C(CNC(=O)c1cc(-c2ccccc2)on1)NOC1CCCCO1 (stereo not given)	5.3	3.5
CCOc1nc(-c2cccc(OC)c2)n(-c2ccc(NC(=O)c3ccc(C)cc3)cc2)n1	26.6	39.6
O=C1c2ccc(Br)cc2C(=O)N1CNc1ccc(Cl)c(Cl)c1	-1.3	-5.9
c1ccc(CN[C@@H]2C[C@@H]3CO[C@H](c4ccccc4)C[C@@H]3C2)cc1	1.5	6.0
N#Cc1cnn(C(=O)CCc2cc(F)ccc2F)c1N	-9.3	-15.2
CN1CCN(C(=O)CNC(=O)NCc2ccc(F)cc2)Cc2ccccc21	1.1	2.9
CC(=O)O/N=C\c1c(Nc2ccc(C)cc2)nc2c(C)cccn2c1=O	-1.2	-1.4
Cc1cc(C)cc(CCC(=O)N2CCN(CCn3ccnc3)CC2)c1	9.0	5.1
O=C(NCc1ccon1)c1ccc2oc(CCCc3ccccc3)nc2c1	16.0	6.7
N#Cc1ccccc1-c1ccc(COc2coc(CN3CCN(C(=O)c4cc(Cl)sc4Cl)CC3)cc2=O)cc1	-1.0	-4.9
O=C(Nc1ccccc1C(F)(F)F)c1c(O)c2ccccc2[nH]c1=O	-10.3	-18.3
Nc1cc(-c2ccc(Br)cc2)ncn1	11.2	7.4

Profiles, looked up by structure.
`CS(=O)(=O)Nc1c(Cl)c(Cl)c(Cl)c(Cl)c1Cl` as listed: NPYLR7 ag = -6.2; NPYLR7 ag max-min = -6.1
`CC1CCN(c2nc(N)c([N+](=O)[O-])c(N3CCCC3)n2)CC1` as listed: NPYLR7 ag = -0.7; NPYLR7 ag max-min = -1.9
`COCCN1CCCC(O)(CN2CCC(Cc3ccc(F)cc3)CC2)C1=O` (stereo not given) as listed: NPYLR7 ag = 15.2; NPYLR7 ag max-min = 12.7

Individual results from the results shown.
NPYLR7 ag, O=S(=O)(c1ccc(Cl)cc1)N1CCOCC1 is entered as 12.7
NPYLR7 ag max-min, CC(C)(C)NC(=O)N(Cc1cccc(C(F)(F)F)c1)CC1CC(c2ccc(Cl)o2)=NO1 (stereo not given) is entered as -20.4
NPYLR7 ag max-min, COC(=O)c1ccc(CN2CCN(Cc3cccc(OC)c3)C(=O)C2)cc1 is entered as 19.5
